T cruzi inh = inhibitors of intracellular T. cruzi growth, primary screen, luminescence, NIH3T3 host cells; T. cruzi beta-gal in NIH3T3, 90 h; inhibition, % (concentration not given with the values); 300,000 compounds, 1.4% hits; AID 1885, 2009;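 active means mean inhibition across valid replicates above about 55%, limit read from the data; inconclusive means mean below that limit but half or more replicates reach it; inactive means mean below it, under half of replicates reach it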;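 further: signal also drops with host cell toxicity which is not excluded here; 0% = plate median of DMSO wells and 100% = zero luminescence signal; higher percent means less beta-gal luminescence so fewer parasites; stock transfer was 50 nL into about 50 µL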
MLL AF4-AF9 inh = inhibitors of AF4 peptide binding to AF9, primary screen, biochemical, AlphaScreen, biotin-AF4 peptide, FLAG-AF9, single point; Protein AF-9 (Homo sapiens), P42568; inhibition, % at 10 µM; 350,000 compounds, 0.47% hits;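 active means every replicate reaching a set inhibition limit, whatever the replicate mean, cut at about 25% in these data; inconclusive means mean inhibition reaches that limit but some replicates miss it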;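 further: 0% = plate neutral control median and 100% = total signal loss; the record names both 10 and 1 µM as test concentration; the first replicate is given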
Target sequence (P42568 whole entry, looked up): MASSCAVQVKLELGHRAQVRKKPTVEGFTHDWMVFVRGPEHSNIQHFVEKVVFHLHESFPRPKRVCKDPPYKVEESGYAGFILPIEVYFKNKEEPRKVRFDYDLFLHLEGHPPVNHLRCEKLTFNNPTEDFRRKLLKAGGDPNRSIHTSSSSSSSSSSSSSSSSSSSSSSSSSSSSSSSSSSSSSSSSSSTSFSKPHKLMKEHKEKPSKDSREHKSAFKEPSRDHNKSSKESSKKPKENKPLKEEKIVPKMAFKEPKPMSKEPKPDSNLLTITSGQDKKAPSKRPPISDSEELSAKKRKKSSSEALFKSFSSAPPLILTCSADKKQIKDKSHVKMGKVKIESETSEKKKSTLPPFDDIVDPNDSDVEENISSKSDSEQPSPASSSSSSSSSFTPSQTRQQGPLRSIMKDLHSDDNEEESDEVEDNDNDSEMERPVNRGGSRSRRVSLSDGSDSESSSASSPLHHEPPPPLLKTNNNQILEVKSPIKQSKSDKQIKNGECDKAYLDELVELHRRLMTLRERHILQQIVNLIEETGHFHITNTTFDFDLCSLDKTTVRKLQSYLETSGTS
LANA-H2B inh = blockers of LANA interaction with H2A/H2B – biochemical, FP readout, HTS, primary screen; Protein LANA1 (Human herpesvirus 8 type P (isolate GK18)), Q9QR71; cell-free LANA-H2A/H2B peptide, fluorescence polarization; inhibition, % (no concentration beside the values); 320,000 compounds, 0.6% hits; AID 2629, 2010; in the data active means inhibition mostly above about 10%, no sharp cut-off; inactive means mostly below about 6.7%;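 further: stock transfer was 7.5 nL into about 10 µL; 0% = median of vehicle wells and 100% = median of positive control wells; one replicate is shown; the record names a cut of 25% in any replicate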
Beta cell apopt = inhibitors of cytokine-induced beta cell apoptosis, primary screen, luminescence | 300,000 compounds, 0.8% hits | INS-1E cytokine-induced death, ATP luminescence, 48 h; percent of positive-control rescue, neutral wells zero | AID 435005, 2010 | protection from apoptosis, % (concentration not given with the values);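 active means all replicates at 75% or more, or half of them and the mean; inconclusive means half reach 75% but not the mean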;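 further: 0% = cytokine-treated negative control wells and 100% = positive control rescue; higher means more ATP so stronger rescue from cytokine killing; wells of about 40 µL received 100 nL stock; the first replicate is given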
Calb FLC = C. albicans growth inhibition with fluconazole, primary screen, CaCi-2 strain, Alamar Blue fluorescence | growth inhibition, % (test concentration not listed) | 300,000 compounds, 0.57% hits | C. albicans CaCi-2 (fluconazole-resistant clinical isolate) + fluconazole, 48 h;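 active means most replicates above 75%; inconclusive means exactly half above 75%; inactive means most below 75%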;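 further: all wells also contain fluconazole at 8 µg/ml as a sub-toxic cotreatment; 0% = median of DMSO wells and 100% = median of geldanamycin control wells; wells of about 8 µL received 7.5 nL stock; the first replicate is given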
A1 inh = caspase 3/7 activation in MEF A1-2A-BIM cells, primary screen, A1 inhibitor project, cell-based, luminescence, HTS. 330,000 compounds, 0.066% hits. AID 2462, 2010. caspase activation, % (concentration not given with the values). Caspase-Glo 3/7 luminescence, 3 h; percent of clofoctol response, vehicle zero;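 active means over half of replicate activation scores above 10%, or exactly half above 10 with the replicate mean above 10; inconclusive means replicate mean below 10 yet half the replicates above 10; inactive means over half of replicates below 10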;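 further: wells of about 30 µL received 50 nL stock; many hits fall short of the cut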
RanGTP-Impb inh = inhibitors of RanGTP-importin-beta interaction, primary screen, biochemical, FRET, CFP-Ran, YFP-importin-beta, homogeneous. cell-free CFP-Ran/YFP-importin-beta FRET ratio. AID 2216, 2009. 300,000 compounds, 1.1% hits. inhibition, % (no concentration beside the values);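 active means most replicates above 15%; inconclusive means exactly half above 15%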;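 further: 0% = DMSO wells and 100% = Ran loaded with GDP instead of GTP; wells of about 40 µL received 100 nL stock; the first replicate is given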
Vif A3G = inhibitors of Vif binding to APOBEC3G peptide, primary screen, biochemical, TR-FRET, GST-Vif 1-94, biotin-A3G peptide, dose response retest (AID 1117319) | Virion infectivity factor (Human immunodeficiency virus type 1 group M subtype B (isolate … | TR-FRET GST-Vif / biotin-A3G peptide binding; higher % means a stronger effect; test concentration not given here; strong numbers were not always called active | inhibition, %, or IC50 in µM where a hit was titrated | 260,000 compounds, 0.57% hits;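 active means above the screen mean plus three standard deviations and confirmed in dose response; inconclusive means results disagree or hit not tested in dose response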;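 further: Vif residues 1-94 fused to GST binding biotinylated APOBEC3G peptide 110-148; 0% = full assay without inhibitor and 100% = GST in place of GST-Vif; retest series ran down from 100 µM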
The depositor's hits bear a star; ? = inconclusive; / = no result given.

SMILES	T cruzi inh	MLL AF4-AF9 inh	LANA-H2B inh	Beta cell apopt	Calb FLC	A1 inh	RanGTP-Impb inh	Vif A3G
COc1ccc(CCNC(=O)C2CC3Cn4c(nc5ccccc54)C3N2c2ccccc2)cc1 (stereo not given)	-7.5	3.6	1.2	1.8	-6.1	0.2	-1.3	/
CN(C)C1=NC(=O)/C(=C/c2ccc(-c3ccc(S(N)(=O)=O)cc3)o2)S1	-13.7	/	-3.6	-2.8	12.3	0.0	12.9	/
O=C(c1cc(Br)ccc1OC(F)F)N1CCN2CCCC2C1 (stereo not given)	/	-0.1	-0.7	-4.7	/	-0.2	/	/
COc1ccc(OC)c2sc(NC(=O)C3CC3)nc12	-6.1	1.3	-3.3	2.7	36.8	-1.0	-2.7	4.0%
CCOP(=O)(c1ccccc1)C1(C#N)CCCC1 (stereo not given)	1.5	/	-7.7	0.0	-0.5	0.3	-1.2	-1.4%
COc1cc(/C=N/Nc2ccc(C(F)(F)F)cn2)cc(OC)c1O	-20.8	1.4	/	/	25.9	/	2.0	13.3%
CC(=O)c1ccc(NC(=O)C2=CC(c3cccs3)=NS(=O)(=O)N2C)cc1	-6.1	8.7	-0.8	-2.7	-6.6	0.2	-1.1	/
CNC(=O)CN1C(=O)C2C3C=CC(C3)C2C1=O (stereo not given)	-9.2	/	-5.9	9.3	5.2	0.1	0.4	3.0%
Cc1cccc2cc(C#N)c(NCCNS(=O)(=O)c3ccccc3)nc12	-4.2	-2.6	0.5	-0.4	-9.3	0.0	12.9	-4.1%
O=[N+]([O-])c1cc(S(=O)(=O)Nc2cccc(C(F)(F)F)c2)ccc1-n1nnc2ccccc21	-7.0	/	4.7	0.9	50.3	1.1	3.3	-1.7%
COC(=O)NCc1ccc(S(=O)(=O)N2CCOCC2)cc1	-4.5	/	-7.9	-6.8	6.2	0.7	3.6	23.9%
CNC(=S)Nc1ccc2nc(C)oc2c1	1.8	1.9	/	2.4	10.4	0.7	-0.7	10.0%
CN(Cc1cn(C)nc1-c1cccc(Cl)c1)CC1CCCCO1 (stereo not given)	-8.4	1.7	1.4	-1.7	-11.0	0.0	1.4	/
COCC(C)N=C1NN=C(c2cc(C)n(Cc3ccccc3Cl)c2C)CS1 (stereo not given)	45.0	7.0	5.9	31.4	-5.2	0.8	-3.3	-4.6%
CCCCN(C)CCC(=O)Nc1ccc(Cl)cc1	13.9	/	4.4	1.7	5.4	-0.3	2.4	5.6%
COC(=O)COc1ccc(S(=O)(=O)NC2CCCCCC2)cc1	-25.6	/	-0.4	-6.6	3.3	1.1	3.5	17.3%
COC(=O)Nc1ccc(S(=O)(=O)Nc2ccc(O)cc2)cc1	-13.8	/	3.4	6.6	3.8	-0.1	-1.3	12.6%
CCOCCOC(=O)CCSc1n[nH]c(=O)[nH]c1=O	-14.7	4.5	1.6	1.0	-9.1	-0.3	-2.3	-0.9%
CC(C)=NNc1nc(-c2ccc(N3C(=O)CCC3=O)cc2)cs1	-21.2	7.3	-2.4	-0.2	-0.4	0.1	-1.9	/
CC(=O)n1cc(/C=C2/N=C(c3ccccc3)OC2=O)c2ccccc21	-23.7	/	-3.4	-2.5	0.3	0.1	0.5	32.1%
O=C(OCc1cc(Cl)ccc1OC(F)F)c1cccnc1	-12.9	-1.0	-8.0	4.5	-6.9	-0.6	1.7	-5.5%
COc1ccc2[nH]c3c(c2c1)CCN1C(=O)N([C@@H](C)C(=O)NC2CC2)C(=O)[C@]31C	-19.6	-1.0	-3.0	-6.2	5.6	-0.4	9.1	/
COc1ccc(C(=O)Nc2cc(C(C)=O)c(/C=C/N(C)C)oc2=O)cc1	-0.6	/	-2.6	-3.7	-12.3	-0.7	-1.4	5.5%
CC1(C)Oc2ccc3ccc(=O)oc3c2C(/C=N/O)C1=O (stereo not given)	-13.9	-3.2	-2.2	-2.0	9.2	0.8	-1.1	/
CCOC(=O)C1C2C=CC3(CN(Cc4cccs4)C(=O)C13)O2 (stereo not given)	-13.5	/	-1.2	-2.3	/	0.3	5.8	1.0%
CCN(CC)S(=O)(=O)c1cc([N+](=O)[O-])ccc1N=Nc1c(O)n(C)c2ccccc12	18.3	5.1	5.4	2.8	-2.4	-0.5	-0.9	/
Nc1ccc(C(=O)N/N=C/c2cn(Cc3cccc(F)c3)c3ccccc23)cc1	-0.5	1.7	2.8	-3.9	-4.6	-0.4	0.7	/
COc1ccc(/C=C2\CCn3c2nc2cc(C(=O)O)ccc2c3=O)cc1	1.7	-1.2	1.2	2.0	11.0	0.2	-2.8	-4.0%
CSCC[C@H](NC(=O)Nc1cccc(C(F)(F)F)c1)C(=O)O	-20.6	/	1.2	-4.4	9.6	1.8	2.0	22.3%
COc1ccc([C@@H]2Sc3ccccc3N(CCN(C)C)C(=O)[C@@H]2OC(C)=O)cc1	-1.4	-0.2	5.9	-0.2	-21.6	1.4	-5.3	17.3%
O=C1OC(Oc2ccccc2)(c2ccccc2)c2ccccc21 (stereo not given)	-7.3	/	-5.3	-4.3	7.0	0.6	0.7	0.7%
O=C(OCc1nc2ccccc2s1)c1ccco1	-11.7	-3.4	4.1	-1.0	30.2	-1.8	4.7	7.2%
CCOC(=O)CCn1c(=S)n(CCC(=O)OCC)c2ccccc21	-7.2	1.3	3.1	-3.7	3.7	0.0	0.0	-14.9%
O=C(CN(Cc1ccccc1)S(=O)(=O)c1ccc2c(c1)OCCO2)N/N=C/c1cccc(Br)c1	21.5	2.3	-2.0	-21.4	-17.7	-2.0	-0.3	/
CCOC(=O)N1CCN(C(=O)CNC(=O)Cc2ccc(Cl)cc2)CC1	11.9	/	-1.7	-3.4	0.1	1.3	2.7	-4.4%
COC(=O)c1ccc(CN2CCN(CC(C)C)C(CCO)C2)cc1 (stereo not given)	3.1	-10.0	-2.5	-0.6	5.0	-0.3	-1.9	/
COc1ccc(C(C#N)Nc2ccccc2C)cc1 (stereo not given)	-13.5	/	-7.8	-4.7	-3.9	0.2	-2.1	-7.9%
Cc1cccc(C(=O)OCC(=O)NC(=O)NCc2ccccc2)c1	/	-9.4	-2.2	-3.8	/	-1.6	/	-12.2%
Cn1cnnc1-c1cccc(NS(=O)(=O)c2ccc(N3CCCC3=O)cc2)c1	-17.8	-25.7	-4.4	-2.5	-10.7	0.0	4.8	?
CCOC(=O)c1ccc(NC(=O)Nc2ncc(Cl)cc2Cl)cc1	-5.1	/	-1.0	6.4	1.4	1.5	-2.8	-7.4%
Cc1cc(/C(N)=N/OC(=O)Nc2cccc(C(F)(F)F)c2)no1	2.8	-3.0	-0.3	-2.1	-6.7	1.6	0.8	/
CCc1ccc(/C=N/NC(=O)c2cc(-c3ccccc3OC)nc3ccccc23)s1	-5.4	/	-3.4	3.7	18.1	0.7	-1.7	-1.8%
COc1ccc(CN2CCSCC2)c(OC)c1C	6.5	3.5	6.6	-9.4	-15.5	0.4	0.5	-4.0%
COc1ccc(OCCCC(=O)Nc2ccc(S(=O)(=O)N3CCOCC3)cc2)cc1	/	0.2	5.8	-1.2	/	-0.3	/	-7.5%
Cc1ccc(NC(=O)CSc2nnc(C)n2-c2ccccc2)cc1	-7.6	/	7.3	-3.0	-7.9	3.0	-0.5	1.6%
CC(=O)Nc1cccc(NC(=O)c2ccc3c(c2)CCN3S(=O)(=O)c2ccccc2)c1	3.5	-3.1	-0.3	5.5	-5.4	0.6	0.8	/
CCOC(=O)C1=C(C)N=c2s/c(=C\c3cccc(OCC(=O)O)c3)c(=O)n2C1c1ccccc1OC (stereo not given)	-14.8	-2.4	-9.1	0.8	-5.6	-0.6	-1.4	3.0%
Cn1c(NC(=O)c2cccnc2)nc2ccccc21	3.4	/	-2.8	10.5	-1.7	-5.5	6.0	-7.7%
COc1cccc(C2CC(c3ccccc3Cl)n3nnnc3N2)c1 (stereo not given)	7.3	/	-11.7	4.2	1.3	0.0	5.6	?
Cc1ccc(C(=O)COc2nc(C)cc(C)c2C#N)cc1	20.6	/	5.6	1.1	-19.1	0.6	4.4	-31.2%
COc1ccc(C(=O)/C=C/c2ccsc2)cc1CSCC(=O)O	-12.0	1.2	-2.8	12.0	-1.8	0.8	-2.3	/
CCCN1CCN(c2nc(-c3cccs3)nc3ccccc23)CC1	14.6	/	-1.4	4.5	-28.7	0.6	0.3	-2.1%
CC(C)c1nnc(NC(=O)c2ccc(N3C(=O)CCC3=O)cc2)s1	-9.3	1.9	-2.3	0.1	2.6	0.5	-2.7	-8.3%
COc1ccc(C2(C(=O)N3CCOCC3)CCOCC2)cc1OC	-24.4	/	-2.9	-4.1	?	0.4	2.2	-1.7%
O=C(CSc1ncn[nH]1)Nc1nsc(-c2ccccc2)n1	-14.6	-1.6	-1.4	-10.3	0.7	-0.6	-3.3	/
CC1Cc2ccccc2N1C(=O)CSc1nnc(-c2ccccc2)c(-c2ccccc2)n1 (stereo not given)	38.1	/	-5.8	1.6	-0.1	1.7	7.1	-58.3%
COc1ccccc1CN1C(=O)c2ccccc2C1C(=O)NC1CCC(C)CC1 (stereo not given)	3.9	3.0	5.6	-2.7	-1.0	1.3	0.1	-6.4%
Cc1ccc(-c2nnc(N3CCN(C(=O)c4cccs4)CC3)c3ccccc23)cc1	1.5	1.7	-1.1	9.0	0.7	-0.2	0.3	-6.3%
CCOC(=O)c1cccc(NC(=O)C2CCCN(S(=O)(=O)c3c(C)n[nH]c3C)C2)c1 (stereo not given)	-8.2	/	0.2	3.1	-13.2	-0.3	4.5	?
CCN(CC)Cc1cc(O)c(CN(CC)CC)cc1O	-0.7	11.2	/	/	29.7	/	-10.6	10.8µM*
(more compounds)
SMILES	T cruzi inh	MLL AF4-AF9 inh	LANA-H2B inh	Beta cell apopt	Calb FLC	A1 inh	RanGTP-Impb inh	Vif A3G
COCCNC(=O)c1cn(Cc2c(F)cccc2Cl)nn1	-10.5	/	-4.7	-2.9	6.5	0.3	0.2	1.2%
COc1cc(S(=O)(=O)Nc2ccc(C(=O)NCC(=O)O)cc2)ccc1NC(C)=O	-7.3	-0.3	1.9	-3.9	10.5	0.5	0.4	6.3%
CCOC(=O)NC(Nc1nnc(C)s1)(C(=O)OCC)C(F)(F)F (stereo not given)	-14.2	/	1.8	-3.1	-2.4	-0.9	?	-1.9%
COc1cc(C(=O)NCCC2=CCCCC2)cc(OC)c1OC	9.3	/	7.7	4.9	-2.6	/	-3.2	28.6%
CC(C)(C)c1ccc(C(=O)NCCCNC(=O)c2ccccn2)cc1	1.8	0.3	0.9	-0.4	5.6	0.2	0.5	/
Cc1cc(C)n2nc(C(=O)NCCc3ccccc3)nc2n1	7.4	/	-0.9	-4.7	-23.4	-0.1	0.8	2.7%
CCOc1ccc(N(CC(=O)NC2CCCCC2)C(=O)CCCC(=O)Nc2ccccn2)cc1	5.1	-3.3	-8.7	3.5	-1.5	0.7	1.8	/
COc1ccc(-c2cc(C(F)(F)F)nc(SCCC(=O)N3CCCC3)n2)cc1	22.7	/	3.7	2.5	4.5	-0.2	2.0	-6.0%
Cc1ccc(-c2nnc3n2N=C(c2ccccc2Br)CS3)cc1	18.4	/	-1.3	6.8	4.5	-0.7	0.7	-0.7%
Cc1cccc(OCc2nc(-c3cccnc3)no2)c1	4.0	0.8	6.2	0.3	-15.3	-7.0	-1.9	-4.1%
